Assay outcomes as filed in PubChem BioAssay.
PINK1 expr mod = PINK1 expression modulation; hit rate 0.2% among 410,000; PINK1 immunofluorescence, high-content cytometry, 24 h; Potency, µM (titrated, usually from 76.6 µM), inactives show at the highest dose activation (PINK1 increase), usual class: activators; AID 624263; active = well fitted activation curve with a large enough effect; inconclusive = small, poorly fitted or top-dose-only effect; inactive = flat fitted curve, though single readings scatter; cell line not stated here;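 also: % of control where 0% means no effect; nearly all actives have a fitted effect of over 65% in size; a mitochondrial uncoupler was the plate control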
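PINK1 protein, normally rapidly degraded, was detected by immunofluorescence after 24 hour compound treatment of a stable cell line. Titration data (5 concentrations) came from laser-scanning cytometry, with CCCP-treated wells as controls.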
* = called active by the depositor; ? = inconclusive. Potency is read from the fitted curve at half-maximal effect. Only part of the results is shown, so the mix of outcomes need not match the whole.

SMILES | PINK1 expr mod
Nc1c(Br)cc(/C=C2\C=Cc3ccccc32)cc1Br | 1.4%
O=C(NCc1ccccc1Cl)c1ccc2oc(=O)n(Cc3ccccc3)c2c1 | 1.6%
CCOC(=O)C1CCN(C(=O)CCS(=O)(=O)c2cc3c(cc2Cl)NC(=O)CO3)CC1 | -0.4%
Cc1ccc(Sc2c(C)nn(C(=O)c3ccc(Br)cc3)c2C)cc1 | 1.9%
O=C(OCc1cc(=O)n2nc(-c3cccs3)sc2n1)c1cccc(Cl)c1 | 4.2%
Cc1cc(C)cc(C(=O)Nc2c(C(=O)Nc3ccccc3F)oc3ccccc23)c1 | 5.1%
CCN(CC)C(=O)C1=C(C)Nc2nc3ccccc3n2C1c1ccc(Br)cc1 (stereo unspecified) | 2.1%
Cc1cc(C)cc(Nc2ncnc3sc4c(c23)CCCC4)c1 | -4.3%
Cc1ccc(NC(=O)C2CCCN2S(=O)(=O)c2cccc3nsnc23)cc1Cl (stereo unspecified) | 1.9%
Cc1cc(C)cc(NC(=O)Cn2c(=O)oc3cc(S(=O)(=O)N4CCCC4)ccc32)c1 | 0.9%
COc1ccc(NC(=O)CSc2nnc(-c3ccc(C)cc3)o2)cc1 | -1.2%
Cc1c(Cl)cccc1NC(=O)c1ccc(C(=O)Nc2cccc(Cl)c2C)cc1 | 0.8%
CCOC(=O)c1ccc(NC(=O)CSc2nc3ncc(Br)c(C)c3[nH]2)cc1 | 1.4%
CC(C)c1nn2c(=O)cc(COC(=O)c3ccc(NC(=O)CCc4ccccc4)cc3)nc2s1 | -0.2%
COc1cccc2cc(-c3nc(-c4ccccc4F)no3)c(=O)oc12 | 0.7%
CCc1ccccc1Nc1nn2c(=O)c3ccc(C(=O)NC(C)C)cc3nc2s1 | -5.1%
Cc1cccc(Cn2c(=O)n(CCc3ccccc3)c(=O)c3sc4ccccc4c32)c1 | 0.8%
COc1ccc(CCNC(=O)CCc2c(C)nc3c(c(C)nn3-c3ccc(C)c(C)c3)c2C)cc1OC | 0.4%
CCN(c1cccc(C)c1)C(CNS(=O)(=O)c1ccccc1)c1ccccc1 (stereo unspecified) | 18%
CC(=O)c1cccc(Nc2nn(-c3ccc(OC(F)(F)F)cc3)nc2C(C)=O)c1 | 2.0%
COc1ccc2c(c1)-c1nc(NC(=O)c3ccc(Cl)cc3)sc1CC2 | 7.6%
O=C(NCC1(c2ccccc2)CCCC1)C(=O)Nc1cccc(C(F)(F)F)c1 | -0.1%
O=C(NCCC1=CCCCC1)c1ccc2c(c1)sc1nc(-c3ccc(F)cc3)cn12 | 2.0%
Cc1ccc(Cn2cc(CCC(=O)NCc3ccccc3F)c3ccccc32)cc1 | -0.4%
Cc1cc(C)cc(NS(=O)(=O)c2ccc(N3CCCCS3(=O)=O)cc2)c1 | 0.4%

Overlap with the part before: 4 entries; new compounds follow.
SMILES | PINK1 expr mod
O=C(NCC1(c2ccccc2)CCCC1)C(=O)Nc1cccc(C(F)(F)F)c1 | -0.1%
O=C(NCCC1=CCCCC1)c1ccc2c(c1)sc1nc(-c3ccc(F)cc3)cn12 | 2.0%
Cc1ccc(Cn2cc(CCC(=O)NCc3ccccc3F)c3ccccc32)cc1 | -0.4%
Cc1cc(C)cc(NS(=O)(=O)c2ccc(N3CCCCS3(=O)=O)cc2)c1 | 0.4%
COc1ccc(NC(=O)CN2C(=O)C(C)(C)c3cc(S(=O)(=O)N4CCCCC4)ccc32)cc1Cl | 3.0%
COc1ccc(CNC(=O)CN2C(=O)CSc3ccc(S(=O)(=O)N4CCC(C)CC4)cc32)cc1 | 1.1%
CCCNC(=O)C1CCC(Cn2c(=O)c3sccc3n(CC(=O)Nc3ccccc3C)c2=O)CC1 (stereo unspecified) | -0.2%
COc1ccccc1NC(=O)c1c(NC(=O)c2ccccc2Cl)sc2c1CCC2 | -0.1%
COc1ccc(N2CCN(C(=O)CN3C(=O)COc4ccc(S(=O)(=O)N5CCC(C)CC5)cc43)CC2)cc1 | -1.6%
Nc1cccc2cccnc12 | -0.1%
CCOc1ccc(NC(=O)CCc2c(C)nc3nc(-c4cc(OC)cc(OC)c4)nn3c2C)cc1 | 0.5%
CCOc1ccc(-c2nc3c(c(SCC(=O)N4CCCCC4)n2)Cc2cc(C)ccc2O3)cc1 | -0.7%
CCCCOc1ccc(-c2nn(-c3ccccc3)cc2C2NC(=O)NC(C)=C2C(=O)OC)cc1 (stereo unspecified) | 0.4%
CC(C)(C)C(=O)Nc1ccccc1C(=O)OCc1cc(=O)n2ccsc2n1 | 3.1%
COc1ccc(OCC(=O)Nc2cc(-c3ccccc3F)nn2-c2ccccc2)cc1 | 8.1%
Cc1c(C(=O)OCC2CCCCC2)[nH]c2c1C(=O)CC(c1ccccc1Cl)C2 (stereo unspecified) | 7.7%
COc1ccc(CNC(=O)Nc2cn(CC(C)C)c(=O)c3ccccc23)cc1 | -5.0%
COCCSc1nc2c([nH]c3ccccc32)c(=O)n1-c1ccc(OC)c(OC)c1 | -4.0%
Cc1ccc(NC(=O)C2CCCN(S(=O)(=O)c3c(C)n[nH]c3C)C2)c(C)c1 (stereo unspecified) | -0.6%
CCCCCOc1ccc(/C=C/C(=O)Nc2sc(C)c(C)c2C(=O)OCC)cc1OC | -0.7%
COc1ccc(-n2nc(C(=O)N(C)c3cccc(C(F)(F)F)c3)c3c4ccccc4n(C)c3c2=O)cc1 | 1.6%
CCCCNc1nc(Oc2ccc(=O)n(-c3ccccc3)n2)nc(N(CC)CC)n1 | -0.6%
COc1cccc(Nc2sc(C(=O)c3ccc(Cl)cc3)c(N)c2C(=O)NCCc2ccc(OC)c(OC)c2)c1 | 17%
CC(=O)Nc1ccc(NC(=O)c2nc(S(=O)(=O)Cc3ccc(F)cc3)ncc2Cl)cc1 | 5.4%
COc1ccc(C2(CNC(=O)C(=O)Nc3ccccc3C)CCCC2)cc1OC | -0.9%
COc1ccc(S(=O)(=O)Nc2cccc(-c3ccc(N4CCC(C)CC4)nn3)c2)c(OC)c1 | 3.0%
CCn1c(=O)n(-c2cccc(Cl)c2)c(=O)c2sc3ccccc3c21 | 2.7%
O=C(CCCc1ccccc1)NC1CC(=O)N(c2cccc(F)c2)C1 (stereo unspecified) | -1.0%
CCC(=O)N1CCc2cc(S(=O)(=O)NCCC(=O)Nc3ccc(C)cc3C)ccc21 | 1.1%

Carrying on.
SMILES | PINK1 expr mod
Cn1c(=O)oc2cc(S(=O)(=O)N3CCCC(C(=O)NCCc4ccccc4)C3)ccc21 (stereo unspecified) | 0.8%
COc1ccc2oc(=O)c(C(=O)Nc3cccc(C(=O)O)c3)cc2c1 | 13%
CC(C)c1ccc(S(=O)(=O)NCc2ccc3c(c2)CCN3C(=O)c2ccccc2)cc1 | 0.3%
CNC(=O)C1CCC(Cn2c(=O)c3sccc3n(CC(=O)N3CCCC(C)C3)c2=O)CC1 (stereo unspecified) | -1.7%
CCOC(=O)c1cc2c(=O)n3ccccc3nc2n(Cc2ccco2)c1=NC(=O)c1ccccc1Br | 0.9%
CC(C)c1ccc(NC(=O)c2cnc3sc(N4CCOCC4)nn3c2=O)cc1 | 1.9%
CN1CCOc2cc(S(=O)(=O)N3CCN(c4nc(-c5cccs5)nc5ccccc45)CC3)ccc21 | -0.2%
COc1cc2ccccc2cc1C(=O)Nc1ccc2oc(-c3ccc(Cl)cc3)nc2c1 | 1.0%
COc1ccc(Nc2ncc(C(=O)N3CCN(c4cccc(Cl)c4)CC3)c3ccccc23)cc1 | 3.2%
Cc1ccc(NC(=O)Cn2c(=O)n(Cc3ccc4c(c3)OCO4)c(=O)c3ccc(C(=O)NC4CCCCC4)cc32)c(C)c1 | -4.5%
COc1cc(Cl)c(C)cc1NC(=O)c1cnn(-c2ccc(C)cc2)c1-n1cccc1 | 4.3%
Cc1ccccc1CSc1nc2c([nH]c3ccccc32)c(=O)n1C | 1.1%
CCOc1ccc(-c2cc3c(=O)n(Cc4nc(-c5ccccc5OCC)oc4C)ccn3n2)cc1Cl | 0.0%
Cc1ccc(C2=Nc3ccccc3N(CC(=O)Nc3ccccc3F)C(=O)C2)cc1C | 1.4%
O=C(C[N+]12CN3CN(CN(C3)C1)C2)c1ccc(Cl)cc1 | 2.4%
C#CCn1c(C2CC(=O)N(c3ccc(OCC)cc3)C2)nc2ccccc21 (stereo unspecified) | 0.3%
CCC1(C2CCN(Cc3cccc4ccccc34)CC2)NC(=O)N(Cc2ccc3c(c2)OCO3)C1=O (stereo unspecified) | -1.2%
Cc1cccc(NC(=O)CSc2nccn2Cc2ccc(F)cc2)c1C | 13%
CC(=O)N1c2ccccc2C(C)(c2ccc(C)cc2)CC1(C)C (stereo unspecified) | 6.1%
COc1ccc(CCN2C(=O)CN(C3CCCCCC3)C(=O)C2c2ccc(C)cc2)cc1OC (stereo unspecified) | -0.6%
CNC(=O)c1ccc(CSc2nc3cccnc3n2Cc2cccc(F)c2)cc1 | 0.5%
Cc1ccc(Cc2nc3ccccc3nc2SCC(=O)N2CCN(c3ccc(F)cc3)CC2)cc1 | 1.3%
Cc1ccc(CNC(=O)CN(c2ccc(Cl)cc2Cl)S(=O)(=O)c2ccccc2)cc1 | 1.2%
CCc1ccc(CNC(=O)c2ccc(CSc3nc4ccncc4n3Cc3ccccc3)cc2)cc1 | -1.7%
Cc1ccc(C2=Nc3ccccc3N=C(c3ccc(F)cc3)C2)c(O)c1 | 9.5%

Carrying on:
SMILES | PINK1 expr mod
COc1ccc(-c2nc3ccccc3s2)cc1NC(=O)c1ccc(F)cc1 | 1.5%
CCSc1nc2sc3c(c2c(=O)n1-c1ccc(C)c(Cl)c1)CCN(C(C)=O)C3 | 3.8%
O=C(CSc1nccn1Cc1ccc(F)cc1)NCc1ccccc1 | ?
CCc1ccc(NC(=O)C2CCN(S(=O)(=O)c3c(C)noc3/C=C/c3ccco3)CC2)cc1 | 3.1%
C=C1C=C(C)n2ncc(C(=O)Nc3ccccc3C(=O)OC)c2N1 | 0.3%
CCOC(=O)c1ccc(NC(=O)c2c(-c3c(F)cccc3Cl)noc2C)cc1 | -0.8%
Cc1ccc(S(=O)(=O)N2CCN(c3nc(-c4cnccn4)nc4ccccc34)CC2)cc1 | 3.2%
CC(=O)c1c(C)n(-c2ccc(C)cc2)c2ccc(OC(=O)COc3ccccc3)cc12 | -5.2%
CC(Sc1ncc(S(=O)(=O)c2ccc(C(C)C)cc2)c(N)n1)C(=O)Nc1ccccc1 (stereo unspecified) | 1.8%
CCOC(=O)C1CCN(C(c2cccc(F)c2)c2c(O)cc(C)n(CCOC)c2=O)CC1 (stereo unspecified) | -0.7%
Cc1cccc(Cn2ccn(Cc3ccc(Cl)cc3)c(=O)c2=O)c1 | 1.0%
Cc1ccc(CNC(=O)C(=O)NCC(c2cccs2)S(=O)(=O)c2ccccc2)cc1 (stereo unspecified) | -0.5%
O=C(c1ccc2c(Cl)c3c(nc2c1)CCCC3)N1CCN(c2ccc(Cl)cc2)CC1 | 0.9%
CSCCC(NS(=O)(=O)c1ccc2c(c1)oc(=O)n2C)C(=O)NCc1ccc(F)cc1 (stereo unspecified) | 0.7%
Cc1ccc2c(CC(=O)Nc3c(C(=O)c4ccc(F)cc4)oc4ccccc34)coc2c1 | -0.1%
CSc1ccc(CCNC(=O)c2cc(C)nc3c2c(C)nn3-c2cccc(F)c2)cc1 | 0.7%
c1cncc(OC2CCN(Cc3ccc4c(c3)CN(Cc3nc5ccccc5s3)CCO4)CC2)c1 | 0.1%
COc1ccc(NC(=O)CSc2nnc3c(n2)[nH]c2ccc(S(=O)(=O)N(C)C)cc23)c(OC)c1 | 1.3%
CCOC(=O)Cn1c(=O)n(C2CCCCC2)c2nc(-c3ccc(Cl)cc3)nc(C(N)=O)c21 | 0.7%
CCS(=O)(=O)N1CCc2cc(C(=O)Nc3ccc(Br)cc3F)ccc21 | 3.2%
Fc1ccccc1N1CCN(c2ncnc3c2nc2n3CCCCC2)CC1 | 2.8%
O=c1c2cnn(-c3ccc(Cl)cc3)c2ncn1Cc1ccc(Cl)cc1Cl | -0.2%
CCN1CCN(c2cc(C)c3cc(NC(=O)/C=C/c4cccc(Cl)c4)ccc3n2)CC1 | 2.9%
CN1CCN(C(=O)c2ccc3c(c2)N(Cc2ccc(Cl)cc2)C(=O)c2ccccc2S3(=O)=O)CC1 | 2.5%
CCOc1ccc(C(=O)N2CC(=O)Nc3ccc(F)cc3C2c2ccc(F)cc2)cc1 (stereo unspecified) | 0.0%

The results go on:
SMILES | PINK1 expr mod
CCOC(=O)c1ccc(NC(=O)C2CC(=O)NC(=Nc3ccc(C)c(C)c3)S2)cc1 (stereo unspecified) | -3.1%
O=C(CSc1c2c(nc3cc(Cl)ccc13)CCCC2)N1CCN(c2ccccc2)CC1 | 4.9%
CCc1ccc(-c2cn3c(n2)sc2cc(C(=O)NCCC4=CCCCC4)ccc23)cc1 | 0.3%
Cc1ccc(OCC(=O)Nc2ccc3c(c2)sc(=O)n3C)cc1 | 1.3%
CC(C)Cc1nn2c(=O)cc(COC(=O)c3cccc(NS(C)(=O)=O)c3)nc2s1 | 1.2%
Cc1cc(C)cc(N2CC(c3nc(-c4cccc(Cl)c4)no3)CC2=O)c1 (stereo unspecified) | 2.3%
CCc1cccc(NC(=O)C2CCC(CNS(=O)(=O)c3ccc(Br)s3)CC2)c1 (stereo unspecified) | -0.3%
CC1CCN(CC2CCN(C(=O)Nc3ccc(Br)cc3F)CC2)CC1 | -1.8%
CC(C)CSc1ccccc1NC(=O)c1sc2nc(-c3ccncc3)ccc2c1N | -0.1%
Cc1ccc(-c2nc3ccccn3c2Nc2c(C)cccc2C)o1 | 1.1%
CCN(CC)S(=O)(=O)c1ccc2oc(C(=O)NCc3ccccc3OC)c(C)c2c1 | 1.9%
